Bioassay records as filed in PubChem BioAssay.
AmpC nodet inh: inhibitors of E. coli AmpC beta-lactamase without detergent; P00811; AmpC nitrocefin hydrolysis, absorbance 480 nm, no detergent; potencies from a single point are estimates; 71,000 compounds, 1.8% hits; Potency, µM (titrated, usually from 28.7 µM), without a hit: at the highest dose activity change, negative = inhibition; active = falling curve, for most hits resting on a single point; inconclusive = weak or doubtful change; inactive = flat or rising curve; note: % of control where 0% means no effect; about half of the hits show no inhibition at the top dose; a quarter of the inactives give rising signals
Target sequence (P00811 whole entry, looked up): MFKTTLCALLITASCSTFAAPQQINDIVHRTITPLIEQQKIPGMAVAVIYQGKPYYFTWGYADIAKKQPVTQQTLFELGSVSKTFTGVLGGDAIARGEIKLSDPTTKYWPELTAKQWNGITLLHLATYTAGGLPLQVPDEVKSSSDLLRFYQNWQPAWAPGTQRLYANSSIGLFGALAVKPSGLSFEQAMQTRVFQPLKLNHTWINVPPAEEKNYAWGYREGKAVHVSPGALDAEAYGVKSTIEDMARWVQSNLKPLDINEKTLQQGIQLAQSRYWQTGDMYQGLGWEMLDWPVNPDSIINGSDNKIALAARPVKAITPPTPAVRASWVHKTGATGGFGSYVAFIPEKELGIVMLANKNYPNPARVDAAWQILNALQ
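Enzyme, pH 7.0 phosphate. Compound titrations were pre-incubated with AmpC for 15 min at room temperature before nitrocefin (stock 800 uM) addition; product formation was recorded at 480 nm every 20 s for 4 min.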
* hit, by the source's call; [ ] = another dose, or the depositor's remark. Potency is the fitted concentration of half-maximal effect. A portion of the library (hit frequency here may not be typical).

Start of the listing, in advance:
How did CCN(CC)CC(=O)c1ccc(-c2ccccc2)cc1 do in these assays?
AmpC nodet inh: 18%

What do the screens show for `COc1cccc(Cn2c(=O)c(-c3cccs3)nc3cnc(OC)nc32)c1`?
AmpC nodet inh: 11%

What do the screens show for `COc1ccc(OC)c(S(=O)(=O)n2nnc3ccccc32)c1`?
AmpC nodet inh: -4%

All compounds of this part, previewed entries included:
How did CCN(CC)CC(=O)c1ccc(-c2ccccc2)cc1 do in these assays?
AmpC nodet inh: 18%

What do the screens show for `COc1cccc(Cn2c(=O)c(-c3cccs3)nc3cnc(OC)nc32)c1`?
AmpC nodet inh: 11%

What do the screens show for `COc1ccc(OC)c(S(=O)(=O)n2nnc3ccccc32)c1`?
AmpC nodet inh: -4%

How did O=C1NC(=O)C2(Cc3ccccc3N3CCCC32)C(=O)N1c1ccc(Cl)cc1 (stereo unspecified) do in these assays?
AmpC nodet inh: 19%

Results for CCOc1cc2[nH]c(=O)n(CCC(=O)N3CCN(c4ccccc4OC)CC3)c(=O)c2cc1OCC ?
AmpC nodet inh: 145%

Results for CCN(CCCNC(=O)CN(C)S(=O)(=O)c1ccc2c(c1)CCC(=O)N2)c1cccc(C)c1 ?
AmpC nodet inh: 129%

What do the screens show for `CC(=O)OC1CC(C)OC(C)O1` (stereo unspecified)?
AmpC nodet inh: -5%

Results for CCOc1ccccc1N(C(=O)c1ccco1)C(C(=O)NC1CCCC1)c1cccnc1 (stereo unspecified) ?
AmpC nodet inh: 44%

Results for CC1(C)Oc2ccc(C(=O)NC3CCCC3)cc2N(CC(=O)NC2CCCC2)C1=O ?
AmpC nodet inh: -2%

How did c1ccc(CCn2nnnc2CN2CCc3ccccc32)cc1 do in these assays?
AmpC nodet inh: 4%

How did CCCCN(Cc1cc2cc(OC)ccc2[nH]c1=O)C(=O)c1ccccn1 do in these assays?
AmpC nodet inh: 5%

What do the screens show for `CCN(CC(=O)NCc1cccs1)c1ccc(S(=O)(=O)N2CCOCC2)cn1`?
AmpC nodet inh: 5%

What do the screens show for `COc1cccc(OCC(=O)NC2CCCCC2)c1`?
AmpC nodet inh: 2%

How did COc1cccc(Nc2ncc3nc(-c4ccccc4)c(=O)n(C)c3n2)c1 do in these assays?
AmpC nodet inh: 7%

What do the screens show for `CCCCC[C@H](O)/C=C\[C@@H]1[C@H](O)CC(=O)[C@@H]1CCCCCCC(=O)O`?
AmpC nodet inh: 9%[12.8 µM]

Results for Cc1c(C(=O)O)nc(/C=C\C(=O)O)[nH]c1=O ?
AmpC nodet inh: 2%[5.75 µM]

What do the screens show for `CC(C)Cn1c(SCc2nnc(-c3cccs3)o2)nc(O)cc1=O`?
AmpC nodet inh: 2%

How did O=C(c1cc(C(F)(F)F)cc(C(F)(F)F)c1)N1CCC[C@@]2(CCN(Cc3ccccc3)C2)C1 do in these assays?
AmpC nodet inh: 74%

What do the screens show for `O=C(CSc1nc2nc(-c3cccs3)cc(C(F)(F)F)c2c(=O)[nH]1)NCc1ccco1`?
AmpC nodet inh: 33%

Results for CCOC(=O)C1=C2N(C)c3ccccc3N2CCC1=O ?
AmpC nodet inh: 1%

What do the screens show for `O=C(CCCCn1c(=O)[nH]c2ccccc2c1=O)NCCC1=CCCCC1`?
AmpC nodet inh: 10%

Results for COc1c(S(=O)(=O)N2CCCC2)ccc(Cl)c1Cl ?
AmpC nodet inh: 0%

Results for CCc1nc(N)c(C#N)c(-c2cccn2C)c1C ?
AmpC nodet inh: -10%

How did Cc1c(C(=O)NCCCN2CCCC2=O)oc2ccc(S(=O)(=O)N3CCOCC3)cc12 do in these assays?
AmpC nodet inh: 32%

What do the screens show for `Cc1ccc2nsnc2c1S(=O)(=O)N1CCCC1`?
AmpC nodet inh: -7%

What do the screens show for `COc1ccc(S(=O)(=O)Cc2ccc(C(=O)N3CCN(c4ncccn4)CC3)o2)cc1`?
AmpC nodet inh: 19%

What do the screens show for `CC1=C(C(=O)Nc2ccccn2)C(c2ccc(N(C)C)cc2)n2ncnc2N1` (stereo unspecified)?
AmpC nodet inh: -1%

How did CC(C)C(=O)Nc1nnc(SCC(=O)NC2CC2)s1 do in these assays?
AmpC nodet inh: -4%

How did CC1CCCCC1NC(=O)C1CCN(C(=O)NC2CCCCC2)CC1 (stereo unspecified) do in these assays?
AmpC nodet inh: -7%

How did Cc1onc(C(=O)N2CCC(C(N)=O)CC2)c1-c1ccccc1Cl do in these assays?
AmpC nodet inh: -2%

How did CSc1nc2ccccc2c(=O)n1N do in these assays?
AmpC nodet inh: -11%

How did NCCCNCCCCN(CCCN)/[N+]([O-])=N/O do in these assays?
AmpC nodet inh: 15%

What do the screens show for `CCCCN(C)S(=O)(=O)c1cc(Br)cc2c1N(C(=O)C1CC1)CC2`?
AmpC nodet inh: 67%

What do the screens show for `Cc1ccc(C(=O)NCCCn2ccnc2)o1`?
AmpC nodet inh: 0%

Results for CN(C)c1ccc(-c2nn3c(-c4ccc(Cl)cc4Cl)nnc3s2)cc1 ?
AmpC nodet inh: 16%

Results for CCOC(=O)CSc1nc2c(c(-c3ccc(C)o3)c1C#N)CCCC2 ?
AmpC nodet inh: 5%

How did CCC(C)N1CC(O)=C(c2nc3ccccc3[nH]2)C1=N (stereo unspecified) do in these assays?
AmpC nodet inh: -9%

What do the screens show for `CCCNS(=O)(=O)c1cccc2cccnc12`?
AmpC nodet inh: 6%

Results for O=C(CN1CCN(Cc2ccccc2)CC1)NC(=O)NC1CCCCC1 ?
AmpC nodet inh: 63%

How did CCC(=O)c1ccc(OCCN2CCOCC2)cc1 do in these assays?
AmpC nodet inh: 1%

Results for Cc1cccc(N2CCCn3c2nc2c3c(=O)n(CCN3CCOCC3)c(=O)n2C)c1 ?
AmpC nodet inh: 32%

What do the screens show for `CCn1c(N)c(C(=O)NCc2ccco2)sc1=S`?
AmpC nodet inh: 0%

Results for CCOc1ccc(-c2noc(-c3cccnc3)n2)cc1OC ?
AmpC nodet inh: 110%

What do the screens show for `O=C(C1CCN(S(=O)(=O)c2cnc[nH]2)CC1)N1CCc2ccccc2C1`?
AmpC nodet inh: -10%

What do the screens show for `Cc1sc2nc(CN(CCc3ccccc3)C(=O)c3ccco3)[nH]c(=O)c2c1C`?
AmpC nodet inh: -6%

Results for CCOC(=O)c1ccccc1NC(=O)CN1C(=O)CCS(=O)(=O)c2ccccc21 ?
AmpC nodet inh: 22%

How did COC(=O)[C@@H](NC(=O)N(C1CCCCC1)C1CCCCC1)C(C)C do in these assays?
AmpC nodet inh: 75%

Results for O=C(O)CSc1ccccn1 ?
AmpC nodet inh: 1%

How did Nc1nonc1N1CCCCC1 do in these assays?
AmpC nodet inh: -4%

Results for Cc1cccc(C)c1NC(=O)c1c(-c2ccccc2)noc1C ?
AmpC nodet inh: 2%

How did Cc1cccc(CNC(=O)c2ccccc2N)c1 do in these assays?
AmpC nodet inh: -9%

How did O=C(Nc1cccc(C(=O)N2CCOCC2)c1)c1cncc(Br)c1 do in these assays?
AmpC nodet inh: -1%

How did Clc1ccc2nc(N3CCCCC3)[nH]c2c1 do in these assays?
AmpC nodet inh: -20%

How did Nc1ncnc2c1nc(Sc1ccc(Cl)cc1)n2[C@@H]1O[C@H]2COP(=O)(O)O[C@@H]2[C@H]1O do in these assays?
AmpC nodet inh: 5%

What do the screens show for `O=C(COC(=O)Cc1cccc(C(F)(F)F)c1)NCC1CCCO1` (stereo unspecified)?
AmpC nodet inh: 27%

Results for O=C(OC(C(=O)NCc1ccc2c(c1)OCO2)c1ccc(Cl)cc1)c1ccco1 (stereo unspecified) ?
AmpC nodet inh: -18%

How did O=C(OCc1ccco1)c1ccc(S(=O)(=O)N2CCCCC2)cc1 do in these assays?
AmpC nodet inh: -9%

Results for CN(C)C(=O)c1ccc(-c2nc(NCc3ccccc3)c3ccccc3n2)cc1 ?
AmpC nodet inh: 90%

What do the screens show for `C=CCOc1ccccc1CNn1nnnc1N`?
AmpC nodet inh: -10%

How did Cc1ccc(C)n1-n1c(C)nc2sc(-c3ccccc3)cc2c1=O do in these assays?
AmpC nodet inh: 25%

Results for CC[C@@]1(c2ccc(N)cc2)CCC(=O)NC1=O ?
AmpC nodet inh: 2%[12.8 µM]

What do the screens show for `O=S(=O)(c1ccccc1)N1CCN(C2CCN(Cc3ccccc3)CC2)CC1`?
AmpC nodet inh: 7%

Results for CCOC(=O)c1oc2ccc(S(=O)(=O)n3nc(-c4ccc(OC)cc4)cc3N)cc2c1C ?
AmpC nodet inh: 3%

How did CCN(CC)C(=O)CP(=O)(c1ccccc1)c1ccccc1 do in these assays?
AmpC nodet inh: 3%

Results for Cn1c(C(C#N)C(=O)c2ccco2)nc2ccccc21 (stereo unspecified) ?
AmpC nodet inh: -2%

Results for FC(F)(F)c1cc(-c2ccco2)nc(NCc2cccnc2)n1 ?
AmpC nodet inh: 63%

How did O=C(NCc1cccc(F)c1)c1noc2c1CCCC2 do in these assays?
AmpC nodet inh: 6%

Results for CC(C)n1c(SCC(N)=O)nc2c1c(=O)[nH]c(=O)n2C ?
AmpC nodet inh: -16%

Results for CC(=O)NCCNc1nc(-c2ccccc2CN(C)C)nc2ccccc12 ?
AmpC nodet inh: -8%

What do the screens show for `COCCN1C(=O)C(=O)/C(=C(/O)c2ccc(OCC(C)C)cc2)C1c1cccnc1` (stereo unspecified)?
AmpC nodet inh: -8%

Results for CN(C(=O)c1cc2sccc2n1C)C1CCCCC1 ?
AmpC nodet inh: 37%

What do the screens show for `Cc1cc(O)ccc1Nc1nc(-c2sc(N)nc2C)cs1`?
AmpC nodet inh: -14%

What do the screens show for `Cc1nn(-c2ccccc2)c2sc(C(=O)n3cccn3)cc12`?
AmpC nodet inh: -4%

How did COc1ccc(-c2nnc(SCC(=O)N3CCOCC3)o2)cc1 do in these assays?
AmpC nodet inh: 2%

Results for CN(CC(=O)O)S(=O)(=O)c1cc(Cl)ccc1Cl ?
AmpC nodet inh: -5%

What do the screens show for `C/C(N)=C(\C#N)C(=O)NCc1ccccn1`?
AmpC nodet inh: 0%

What do the screens show for `COCCSc1nnc(-c2cccc(C#N)c2)n1C`?
AmpC nodet inh: 15%

Results for CC(C)C(c1nnnn1Cc1ccc(F)cc1)N1CCN(C(=O)c2ccco2)CC1 (stereo unspecified) ?
AmpC nodet inh: 58%

Results for CCOC(=O)C1CCCCN1Cc1cc(Cl)ccc1O (stereo unspecified) ?
AmpC nodet inh: 27%

What do the screens show for `O=C(O)/C(=C1/OC(=O)c2ccccc21)c1ccccc1`?
AmpC nodet inh: 5%

Entries listed so far containing a COOH group (five):
What do the screens show for `CCCCC[C@H](O)/C=C\[C@@H]1[C@H](O)CC(=O)[C@@H]1CCCCCCC(=O)O`?
AmpC nodet inh: 9%[12.8 µM]

Results for Cc1c(C(=O)O)nc(/C=C\C(=O)O)[nH]c1=O ?
AmpC nodet inh: 2%[5.75 µM]

Results for O=C(O)CSc1ccccn1 ?
AmpC nodet inh: 1%

Results for CN(CC(=O)O)S(=O)(=O)c1cc(Cl)ccc1Cl ?
AmpC nodet inh: -5%

What do the screens show for `O=C(O)/C(=C1/OC(=O)c2ccccc21)c1ccccc1`?
AmpC nodet inh: 5%

(cont.)
What do the screens show for `C[C@H]1C[C@@H](C)C(=O)[C@@H]([C@H](O)CC2CC(=O)NC(=O)C2)C1`?
AmpC nodet inh: -4%[12.8 µM]

How did Cc1ccc2[nH]c3c(c2c1)CN(C(=O)CN1CCN(c2ccccc2F)CC1)CC3 do in these assays?
AmpC nodet inh: 116%

What do the screens show for `CCOC(=O)CSc1nc2cc(C)cc(C)c2cc1C#N`?
AmpC nodet inh: 14%

How did CCOC(=O)N1CCN(C(=O)CN(C2CCCCC2)S(=O)(=O)c2ccc(C)cc2)CC1 do in these assays?
AmpC nodet inh: 116%

Results for NS(=O)(=O)c1ccc(CCNC(=O)CCC2COc3ccccc3O2)cc1 (stereo unspecified) ?
AmpC nodet inh: -1%

How did Cc1cc(C)c2[nH]c(=O)c(C(c3nnnn3C3CCCC3)N3CCOCC3)cc2c1 (stereo unspecified) do in these assays?
AmpC nodet inh: 4%

What do the screens show for `COc1ccc(OCCCC(=O)Nc2nncs2)cc1`?
AmpC nodet inh: -18%

Results for CS(=O)(=O)N(CC(=O)Nc1ccccc1C(=O)N1CCOCC1)c1ccc2c(c1)OCO2 ?
AmpC nodet inh: 10%

How did O=C(c1ccco1)N1CCN(c2nc3ccccc3n3nnnc23)CC1 do in these assays?
AmpC nodet inh: 40%

How did N/C(=N\O)c1ccc(NC(=O)c2cccs2)cc1 do in these assays?
AmpC nodet inh: 2%

What do the screens show for `COc1ccc(Nc2ncnc3c2cnn3Cc2ccccc2)cc1`?
AmpC nodet inh: 33%

How did COC(=O)COc1ccc(S(=O)(=O)NCc2ccco2)cc1 do in these assays?
AmpC nodet inh: -6%

How did COc1ccc2[nH]cc(CCNc3cc(-c4ccoc4)ncn3)c2c1 do in these assays?
AmpC nodet inh: 2%

Results for COc1ccc(NC(=O)C2CCN(Cc3cnn(-c4ccccc4)c3-n3cccc3)CC2)cc1OC ?
AmpC nodet inh: 108%

Results for O=C(CSc1nn(-c2ccc(F)cc2)c(=S)s1)NC(=O)NCc1ccco1 ?
AmpC nodet inh: inconclusive

How did c1ccc2[nH]c(N3CCOCC3)nc2c1 do in these assays?
AmpC nodet inh: -5%

What do the screens show for `O=C(CN1C(=O)COc2ccccc21)N(CCCN1CCOCC1)CC1CC=CCC1` (stereo unspecified)?
AmpC nodet inh: 57%

How did C#CCNc1nc(C(C)C)nc2c1nnn2Cc1ccccc1F do in these assays?
AmpC nodet inh: -12%

Results for Nc1ccc2nc3n(c(=O)c2c1)CCC3 ?
AmpC nodet inh: -6%
